TRPML1 agonist = qHTS for Agonists of the Human Mucolipin Transient Receptor Potential 1 (TRPML1); Mucolipin-1 (Homo sapiens), Q9GZU1; TRPML1-expressing cells, Ca2+ dye fluorescence, FDSS; host cell line not named in the record; reference of the full effect not given here; activation, % (concentration not given with the values); actives 0.12% (n = 410,000); AID 624414, 2012; in the data active = activation above about 50%; inconclusive = about 30% to 50%; inactive = below about 30%; also: 0% is about no effect; the text of the record puts the active cut at 80%
Target sequence (Q9GZU1 whole entry, looked up): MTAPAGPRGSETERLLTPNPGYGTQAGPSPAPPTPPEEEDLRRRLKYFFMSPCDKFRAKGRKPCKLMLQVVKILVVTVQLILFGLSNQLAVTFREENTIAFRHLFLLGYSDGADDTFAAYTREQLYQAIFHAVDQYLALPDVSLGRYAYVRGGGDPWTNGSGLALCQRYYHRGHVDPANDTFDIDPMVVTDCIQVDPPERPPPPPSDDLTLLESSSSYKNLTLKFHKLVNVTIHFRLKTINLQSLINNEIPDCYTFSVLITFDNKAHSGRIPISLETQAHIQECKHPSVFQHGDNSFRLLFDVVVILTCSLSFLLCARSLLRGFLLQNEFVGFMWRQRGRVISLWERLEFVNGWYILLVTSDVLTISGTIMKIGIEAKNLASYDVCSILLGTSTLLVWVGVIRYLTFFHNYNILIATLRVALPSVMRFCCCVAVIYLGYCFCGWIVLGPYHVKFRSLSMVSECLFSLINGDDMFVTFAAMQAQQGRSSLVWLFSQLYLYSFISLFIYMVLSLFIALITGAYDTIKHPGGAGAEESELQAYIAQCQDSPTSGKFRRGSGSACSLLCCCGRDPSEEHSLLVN
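Calcium fluorescence on an FDSS kinetic reader gave the read-out. Tet-induced TRPML1-DL cells were plated overnight, dye-loaded (Ca8 with quencher, 45-90 min, room temperature, dark), then read 110 s after compound addition, and again 110 s after 4uM final 54-4 (EC80).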
Six1-Eya2 blk = qHTS Assay for Inhibitors of the Six1/Eya2 Interaction; Homeobox protein SIX1 (Homo sapiens) + Protein phosphatase EYA2 (Homo sapiens), …; AlphaScreen GST-Six1/His-Eya2 binding, biochemical; hits give low values; control for the full effect not named in the record; activity change, % (test concentration not listed); actives 0.56% (n = 360,000); AID 651725, 2012; in the data active = activity change below about -65%; inconclusive = about -30% to -65%; inactive = above about -30%; also: % is scaled to controls: 0 for no effect and ±100 for the full control effect; compound concentration not given in the record
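Compounds are tested against tagged Six1 and Eya2 proteins bridged by glutathione donor and nickel acceptor beads; after a one-hour incubation at 37 °C without light, AlphaScreen emission is recorded.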
TRPML1 inh = qHTS for Inhibitors of the Human Mucolipin Transient Receptor Potential 1 (TRPML1); Mucolipin-1 (Homo sapiens), Q9GZU1; TRPML1-inducible cells, Ca2+ dye fluorescence, FDSS; hits give low values; inhibition of EC80 agonist-evoked calcium signal; activity change, negative = inhibition, % (test concentration not listed); actives 0.02% (n = 390,000); in the data active means activity change below about -50%; inconclusive means about -30% to -50%; inactive means above about -30%;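 also: stimulus is agonist 54-4 at its EC80 concentration; % is scaled to controls: 0 for no effect and ±100 for the full control effect; compound concentration not given in the record; the text of the record puts the active cut at -80%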
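TRPML1-DL cells, Tet-induced overnight (~16 h, 37 °C) at 1,500 cells/well, were loaded with Ca8 no-wash dye plus quencher for 45-90 min at room temperature. Compounds were pinned during FDSS kinetic reading; agonist 54-4 at EC80 (4 uM final) then added.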
D2 agonist = Beta-Arrestin HTS for Positive Allosteric Modulators of the Human D2 Dopamine Receptor: Agonists; D(2) dopamine receptor (Homo sapiens), P14416; actives 0.084% (n = 360,000); activation, % (test concentration not listed); DiscoveRx PathHunter D2 beta-arrestin, luminescence, 90 min; 100% = 57 uM dopamine signal; in the data active = activation above about 40%; inconclusive = about 15% to 40%; inactive = below about 15%; also: compound concentration not given in the record; the text of the record calls up to 30% inactive
Target sequence (P14416 whole entry, looked up): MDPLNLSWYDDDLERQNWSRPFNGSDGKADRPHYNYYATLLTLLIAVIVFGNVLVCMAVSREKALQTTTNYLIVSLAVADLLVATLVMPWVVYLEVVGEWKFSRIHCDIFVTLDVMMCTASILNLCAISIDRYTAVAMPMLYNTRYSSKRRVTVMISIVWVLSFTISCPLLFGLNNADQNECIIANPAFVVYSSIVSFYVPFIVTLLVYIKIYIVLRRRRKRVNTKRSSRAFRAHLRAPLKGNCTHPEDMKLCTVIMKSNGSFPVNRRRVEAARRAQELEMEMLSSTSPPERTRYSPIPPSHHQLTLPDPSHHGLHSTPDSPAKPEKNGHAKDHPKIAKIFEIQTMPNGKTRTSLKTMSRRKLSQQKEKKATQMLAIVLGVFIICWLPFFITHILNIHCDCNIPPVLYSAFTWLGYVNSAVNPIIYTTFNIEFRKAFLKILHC
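Agonist mode: compounds alone added to overnight-plated D2 PathHunter cells for 90 min at 37 C, with 57 uM final dopamine (EC100) defining full response. Beta-arrestin recruitment detected by chemiluminescent reagent, read after 1 h at ambient temperature.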
CtBP-E1A blk = qHTS Assay for Inhibitors of the CtBP/E1A Interaction. activity change, % (concentration not given with the values). AlphaScreen GST-E1A/His-CtBP binding, 1536-well; hits give low values; control for the full effect not named in the record. actives 0.49% (n = 340,000). CtBP / adenovirus E1A interaction (AlphaScreen). AID 651724, 2012; in the data active means activity change below about -65%; inconclusive means about -30% to -65%; inactive means above about -30%; also: % is scaled to controls: 0 for no effect and ±100 for the full control effect
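Protein mix (5X: 125 nM each GST-E1A, His-CtBP) was incubated with pinned compound 2 h at 37 deg C in dark, in 50 mM Tris pH 8.0 buffer with 300 mM NaCl. Glutathione donor and nickel acceptor beads followed; AlphaScreen signal read after 1 h.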
PINK1 expr mod = A Quantitative High throughput Screen to Identify Chemical Modulators of PINK1 Expression. actives 0.2% (n = 410,000). PINK1 immunofluorescence, high-content cytometry, 24 h. Potency, µM (titrated, usually from 76.6 µM), without a hit: at the highest dose activation (PINK1 increase), most hits filed as activators; active = well fitted activation curve with a large enough effect; inconclusive = small, poorly fitted or top-dose-only effect; inactive = flat fitted curve, though single readings scatter; cell line not stated here;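 also: potency is read from the fitted curve at half-maximal effect; % of control where 0% means no effect; nearly all actives have a fitted effect of over 65% in size; a mitochondrial uncoupler was the plate control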
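Cells are seeded, rested 12 hours, then given compound at five concentrations or DMSO for 24 hours. After fixation, blocking and antibody staining, PINK1 amount and mitochondrial localization are scored; CCCP serves as control.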
* marks the source's active call; other numbers are inactive results; ? = inconclusive; . = not tested or not shown; [ ] = remark or other dose.

smiles	TRPML1 agonist	CtBP-E1A blk	Six1-Eya2 blk	D2 agonist	PINK1 expr mod	TRPML1 inh
Cc1ccc[n+](-c2nc([O-])sc2C=O)c1	12	.	-3	2.5	1.4%	-13
COC(=O)Cc1ccc(NC(=O)c2cccs2)cc1	-0.6	0	-1	-3.1	2.0%	-1
COc1ccccc1C(=O)Nc1ccc(S(=O)(=O)Nc2onc(C)c2C)cc1	-0.9	4	1	-1.9	0.7%	-6
COCCn1c(COc2cccc(OC)c2)nnc1SCC(=O)NC1CCCCC1	-0.1	2	5	-2.0	-0.9%	-4
O=c1[nH]c(CN2CCN(c3ccccc3)CC2)nc2ccccc12	-0.7	-4	8	-1.5	-3.2%	-17
OCC1CCCN(Cc2cn(Cc3ccccc3)nc2-c2cc3ccccc3o2)C1 (stereo not drawn)	0.1	-19	2	-0.5	1.0%	7
Cc1cc(Br)ccc1NC(=O)CNC(=O)CNc1cccc([N+](=O)[O-])c1	-1.2	.	-7	0.4	2.3%	0
COc1ccccc1-c1cccc([C@@H]2C[C@H]3[C@H](CON3C)CN2S(=O)(=O)c2ccccc2C)c1	-0.5	-16	-13	10	1.3%	-4
COc1cc(-c2nc3ccc(C)cn3c2Nc2ccc3c(c2)OCCO3)ccc1O	0.0	-21	-24	4.8	1.8%	-5
CSC1=NNC(c2ccc(C(C)(C)C)cc2)=NN1	3.4	8	7	-6.0	1.2%	13
Cc1cccc(C(=O)N2CCc3cc(CNS(=O)(=O)c4ccc(F)c(Cl)c4)ccc32)c1	-0.5	.	.	.	5.2%	3
Cn1ccc(NC(=O)Nc2cccc(C(F)(F)F)c2)n1	0.8	0	4	-1.6	-0.4%	-18

Some entries already given, showing only CtBP-E1A blk and PINK1 expr mod.
SMILES | CtBP-E1A blk | PINK1 expr mod
COc1ccccc1C(=O)Nc1ccc(S(=O)(=O)Nc2onc(C)c2C)cc1 | 4 | 0.7%
COCCn1c(COc2cccc(OC)c2)nnc1SCC(=O)NC1CCCCC1 | 2 | -0.9%
O=c1[nH]c(CN2CCN(c3ccccc3)CC2)nc2ccccc12 | -4 | -3.2%

(next part)
smiles	TRPML1 agonist	CtBP-E1A blk	Six1-Eya2 blk	D2 agonist	PINK1 expr mod	TRPML1 inh
CCOC(=O)C1(Cc2cccc(F)c2)CCN(CC2CC2)CC1	0.7	-5	6	-2.5	-0.1%	-19
CCN(C(=O)COC(=O)c1cccs1)c1c(N)n(Cc2ccccc2)c(=O)[nH]c1=O	1.2	0	2	-3.7	0.1%	-16
CC(O)C1CCC2C3CCC4CC(O)CCC4(C)C3C(=O)CC12C (stereo not drawn)	.	6	4	-2.8	1.3%	.
CCOc1ccc(Br)cc1C1=CC(=O)C[C@H](c2ccc(OC)cc2)C1	3.3	4	-7	1.5	6.7%	-6
Cc1cc(C(=O)NC(C)CCC(C)C)c2ccccc2n1 (stereo not drawn)	0.7	.	11	-6.5	-0.2%	-16
CN(C)N=Nc1ccc(S(=O)(=O)N2CCSC2C(=O)O)cc1 (stereo not drawn)	2.2	2	1	-2.2	-0.4%[38.3 µM]	-20
CCc1nnc(SCc2nc(-c3ccc(OC)cc3)oc2C)c2cc3sccc3n12	0.5	.	.	.	1.0%	0
CCOC(=O)C1=C(c2ccccc2)NC(=S)NC1c1ccc(C)c([N+](=O)[O-])c1 (stereo not drawn)	1.2	-3	-10	-2.2	14%	4
Cc1ccc(NC(=O)c2cc(S(=O)(=O)NCC3CCCO3)ccc2F)cc1 (stereo not drawn)	-1.0	-4	-7	-0.1	-0.4%	-2
Cn1c(=O)n(C)c2cc(S(=O)(=O)Nc3ccccc3)ccc21	1.1	-2	-1	1.7	-5.2%	-30
CCCOc1ccc(C2C(C(=O)c3ccc(C)o3)=C(O)C(=O)N2CCCn2ccnc2)cc1 (stereo not drawn)	-0.9	-12	-8	-3.1	-1.0%	-13
C=CCn1c(O)c(N=NC(=O)c2ccc3c(c2)OCO3)c2ccccc21	-0.7	2	-2	-4.0	18%	5

Continuation:
smiles	TRPML1 agonist	CtBP-E1A blk	Six1-Eya2 blk	D2 agonist	PINK1 expr mod	TRPML1 inh
CCC(=O)N1CCCc2cc(S(=O)(=O)CCC(=O)Nc3ccccc3C)ccc21	-0.3	1	2	0.0	0.6%	-10
CN(C)C(=O)N1CCC(C(=O)NCc2ccc(F)cc2)CC1	-0.3	-17	7	-3.5	1.1%	-13
NC(=O)c1ccsc1NC(=O)CS(=O)(=O)c1ccc(Cl)cc1	-0.4	-4	3	0.6	1.4%	-11
COc1cc2c3c(c1OC)C(=O)CC3CCCC2 (stereo not drawn)	-1.0	-12	4	-3.2	-0.2%	.
N/C(=N\OC(=O)Cc1ccc(-c2ccccc2)cc1)c1cccnc1	1.7	14	12	9.2	14%[38.3 µM]	2
COc1cccc(CNC(=O)C2CCCN(c3nc4ccccc4o3)C2)c1 (stereo not drawn)	2.2	60	31	-1.7	-1.2%[38.3 µM]	-10
Cc1ccc(C(=O)NCC(=O)NC2CC2)cc1	0.5	-18	12	-0.7	0.5%	30
COc1cc(NS(=O)(=O)c2ccc3c(c2)C(C)(C)C(=O)N3C)cc(OC)c1	0.1	4	-7	-0.1	-0.5%	-1
CCOC(=O)c1ccc(NC(=O)CSc2nnc(CNC(=O)c3ccc(OC)cc3)n2CC)cc1	-1.1	.	.	.	1.3%	12
CC(CC(=O)NCc1ccc(Cl)cc1)c1ccccc1 (stereo not drawn)	.	.	3	-1.7	0.6%	.
O=C(Nc1ccccc1)c1ccc2nsnc2c1	0.8	-14	-2	-1.9	-2.9%	3
Cc1cc(C(=O)NCCC2=CCCCC2)ccc1[N+](=O)[O-]	0.2	21	2	4.3	0.1%	10

The list continues:
smiles	TRPML1 agonist	CtBP-E1A blk	Six1-Eya2 blk	D2 agonist	PINK1 expr mod	TRPML1 inh
CCc1ccc(OCCCC(=O)Nc2nnc(C3CCCO3)s2)cc1 (stereo not drawn)	1.3	-21	-12	-0.6	6.9%	6
CC1=N/C(=C\c2ccc([N+](=O)[O-])cc2)C(=O)N1c1ccc(F)cc1F	0.0	-11	8	2.9	1.0%	7
O=C(N/N=C/c1ccncc1)C1CC1(c1ccccc1)c1ccccc1 (stereo not drawn)	0.0	0	-8	-0.5	-0.1%	-1
Cc1ccc(N2C(N)=C(C#N)C(c3ccsc3)C3=C2CC(C)(C)CC3=O)cc1 (stereo not drawn)	57*	20	2	-3.3	0.7%	-2
Nc1nc2c(ncn2[C@@H]2O[C@H](CNS(=O)(=O)c3cccnc3)[C@@H](O)[C@H]2O)c(=O)[nH]1	0.4	9	2	-4.0	0.3%	7
CN=c1scc(-c2cccs2)n1/N=C/c1ccccc1O	1.8	-18	-19	-3.3	-0.1%	-12
CC(C)c1[nH]c(=O)c(C#N)c2c1COC(C)(C)C2	0.8	4	4	3.5	3.9%[38.3 µM]	5
CC(C)(C)c1csc(NNC(=O)c2ccc(Br)cc2)n1	-0.5	-6	4	-5.2	-0.2%	2
COc1ccc(S(=O)(=O)Nc2nc3c(s2)C(=O)CC(C)(C)C3)cc1	0.5	-22	-4	2.5	-0.3%	-12
O=C(NCc1ccc2c(c1)OCO2)C1CCN(S(=O)(=O)c2ccc(F)cc2)CC1	-0.4	.	-2	1.9	-1.2%	-3
O=C(Nc1sc2c(c1CN1CCOCC1)CCC2)c1ccc(F)cc1	-0.3	5	0	-2.0	12%	6
Cc1ccc(C2CC(c3cccc(NS(C)(=O)=O)c3)=NN2S(C)(=O)=O)cc1 (stereo not drawn)	-0.3	.	-6	-3.0	11%	10

(listing goes on)
smiles	TRPML1 agonist	CtBP-E1A blk	Six1-Eya2 blk	D2 agonist	PINK1 expr mod	TRPML1 inh
CCn1cc(C(=O)NCC2CCCO2)c(=O)c2cc(S(=O)(=O)N(C)C3CCCCC3)ccc21 (stereo not drawn)	1.0	-1	-4	1.5	0.0%	-14
Cc1sc2c(c1C)c(=O)n(CCc1ccccc1)c(=O)n2Cc1cccc(F)c1	2.7	.	.	.	0.7%	66
Cc1ccc(-c2cn3cccnc3n2)cc1NC(=O)c1c(-c2ccccc2Cl)noc1C	3.0	3	-2	0.3	3.2%	4
O=C(Nc1cccc(S(=O)(=O)N2CCCC2)c1)c1ccc(Cl)nc1	-0.4	-30	?	0.1	5.9%	-16
Cc1ccc(/C=C2\CCOC2=O)cc1	-0.3	3	-8	-0.8	0.1%	1
Cc1ccc(S(=O)(=O)N2CCN(c3ncnc4sccc34)CC2)cc1	-0.1	3	0	6.7	-0.2%	25
CC1CCN(C(=O)COC(=O)c2cc(Cl)c3c(c2)OCO3)CC1	4.6	6	1	0.6	2.1%	15
O=C1OCCN1C(=O)[C@H]1[C@H](c2ccc([N+](=O)[O-])cc2)C(c2ccc(F)cc2)=NN1c1ccc(Br)cc1	0.0	-6	-20	1.3	-0.1%	17
COc1ccccc1N1CCN(C(=O)COc2ccc(Cl)cc2)CC1	-0.1	2	-6	-1.9	3.5%[38.3 µM]	35
O=C(CCSCCc1ccncc1)NCCCN1CCOCC1	0.0	-5	8	-0.6	-0.5%	12
Cc1nn(-c2ccccc2)c2c1C(c1ccc(Br)s1)C(C#N)=C(N)O2 (stereo not drawn)	0.7	.	15	-4.4	5.7%	-13
COc1ccc2cc3cc(C(=O)N4CCN(c5ccc(C(C)=O)cc5)CC4)sc3nc2c1Cl	-0.1	.	.	.	3.1%	12
Cc1ccc(Nc2nc(-c3ccncc3)cs2)cc1	0.3	1	3	-7.4	8.5%	15
CC(C)c1csc(CN2CCC(CO)(Cc3cccc(F)c3)CC2)n1	0.9	-5	-8	1.8	3.0%	-7

Source: PubChem
